Sa helicase inh = inhibitors of S. aureus replicative helicase, primary screen, biochemical, fluorescence unwinding readout. purified S. aureus helicase, fluorescence unwinding assay; about half of the hits fall short of the stated cut. 120,000 tested, 0.05% active. inhibition, %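 (tested at about 80 µM)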. replicative DNA helicase (DnaC/DnaB), Staphylococcus aureus. AID 485395, 2010;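 active = both duplicates at 50% or more, or one of them with a favoured structure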;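 also: 0% = mean of negative control wells and 100% = mean of positive control wells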
MgrA DNA FP = S. aureus MgrA activity modulators, primary screen, biochemical, S. aureus Newman, fluorescence polarization; MgrA-DNA binding; inhibition, %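 (about 10 µg/mL by stock and volumes)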; 84,000 tested, 0.13% active;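 active = above 50% in either of two replicates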;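 also: 0% = protein plus DNA without compound and 100% = DNA alone without protein; higher means less MgrA bound to DNA so lower polarization; one replicate is shown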
The depositor's hits bear a star; . = not tested or not shown. An excerpt; rates above refer to the full screens.

SMILES,Sa helicase inh,MgrA DNA FP
O=c1c2c3c(sc2nc2sc(-c4ccncc4)nn12)CCCC3,-9,.
Nc1ccc(S(=O)(=O)Nc2cc(F)ccc2F)cc1,.,1.8
Nc1ccc2nc(-c3ccccc3-c3nc4ccc(N)cc4[nH]3)[nH]c2c1,3,0.4
CSc1ccccc1C(=O)OCC(=O)Nc1ccc(S(N)(=O)=O)cc1,1,.
N#Cc1ccc(OCC(F)(F)F)c(C#N)c1OCC(F)(F)F,0,.
Cc1noc(C)c1CSc1nc2cc(C(=O)O)ccc2c(=O)n1Cc1ccccc1,12,.
O=c1cc(-c2ccccc2)ss1,19,8.8
CC(C)C(NS(=O)(=O)c1ccc2c(c1)CCCC(=O)N2)C(=O)N1CCN(c2ccccc2)CC1 (configuration not stated),3,.
CC(CC(=O)O)CC(=O)N1CC(C)OC(C)C1 (configuration not stated),-17,2.1
c1ccc(C2=Nc3ccccc3SC2c2nc3ccccc3[nH]2)cc1 (configuration not stated),-13,1.6
O=C(NCC1CCCCC1)C1CCCN1C(=O)NC1CCCCC1 (configuration not stated),11,1.1
COc1ccc(NS(=O)(=O)c2ccc3oc(SCC(=O)Nc4ccc5c(c4)OCO5)nc3c2)cc1,2,.
CCOC(=O)c1c(NC(=O)CSc2nnc3c4ccccc4n(CC)c3n2)sc2c1CCN(C)C2,-48,.
O=C(Cn1cc(/C=C2\NC(=S)N(c3ccccc3)C2=O)c2ccccc21)NCc1ccco1,-46,.
Cc1ccc(OCC(=O)N2CCCCC2)cc1,1,-2.0
CC(=O)Cn1cc(Cl)c(=O)c(Cl)c1,.,1.1
CCOC(=O)C1=C(CSc2nc(CC)c(C)cc2C#N)OC(N)=C(C#N)C1c1ccc(F)cc1 (configuration not stated),15,-0.7
CCOC(=O)C(C)N1c2cccc3cccc(c23)S1(=O)=O (configuration not stated),7,-1.8
NC(=O)CSc1nc2c([nH]c3ccccc32)c(=O)n1-c1ccccc1,-15,.
COc1cc(-c2ccc(/C=C3\SC(=N)N(c4nccs4)C3=O)o2)c(OC)cc1Cl,-11,5.5

Part of the list above in a different format.
Sa helicase inh	MgrA DNA FP	compound
-17	2.1	CC(CC(=O)O)CC(=O)N1CC(C)OC(C)C1 (configuration not stated)
-13	1.6	c1ccc(C2=Nc3ccccc3SC2c2nc3ccccc3[nH]2)cc1 (configuration not stated)

The list continues:
SMILES,Sa helicase inh,MgrA DNA FP
O=C(CN1CCN(S(=O)(=O)c2ccc(Br)cc2)CC1)c1ccc2c(c1)OCO2,4,.
CC1CCCCN1C(=S)NC(=O)c1ccccc1Cl (configuration not stated),-14,.
Cn1ncc2c(N3CCOCC3)ncnc21,.,-2.3
CSc1nnc(NC(=O)c2ccc(C)c(C)c2)s1,12,.
CCCn1c(C)cc(C(=O)CSc2nnc(-c3cc(OC)c(OC)c(OC)c3)o2)c1C,-7,.
NC(=O)C1CCN(C(=O)Nc2cccc(Cl)c2)CC1,-5,-0.6
Oc1ccc(Nc2nc3nonc3nc2Nc2cccc(Br)c2)cc1,.,2.6
Cc1cc(=S)nc(C(C)C)[nH]1,-6,.
O=C(Oc1ccccc1N1CCCCC1)c1sccc1Cl,.,1.8
CCOC(=O)c1cc(C)n(CCCN2CCOCC2)c1C,1,-1.4
CCc1ccc(C(=O)Cc2cc3cccc(OC)c3oc2=O)cc1,9,-0.4
Cc1ccc2cc(CN(Cc3ccccc3)C(=O)C3CC3)c3nnnn3c2c1,20,-33
COc1ccc(Cn2c3ccccc3c3nc4ccccc4nc32)cc1,-8,0.6
O=C(NC1CCN(C(=O)Nc2cccc(Cl)c2)CC1)C1CCCCC1,0,2.7
CN(CC(=O)Nc1ccc(F)cc1F)S(=O)(=O)c1ccc2c(c1)c(=O)n(C)c(=O)n2C,16,-3.6
CC(C)(C)c1ccc(OCCn2ccccc2=O)cc1,19,-0.2
CC(NC(=S)Nc1ccc(S(N)(=O)=O)cc1)c1ccncc1 (configuration not stated),10,-3.2
C/C(=N\O)c1cc(Cl)cc(Cl)c1O,.,1.5
Cc1[nH][nH]c(=O)c1C1=NCCC1,-6,.
CC(=O)Oc1ccccc1C(=O)Oc1cccc(C)c1,4,-1.9

Profiles, looked up by structure:
O=C(NC1CCN(C(=O)Nc2cccc(Cl)c2)CC1)C1CCCCC1 reads Sa helicase inh = 0; MgrA DNA FP = 2.7
CC(NC(=S)Nc1ccc(S(N)(=O)=O)cc1)c1ccncc1 (configuration not stated) reads Sa helicase inh = 10; MgrA DNA FP = -3.2
COc1ccc(Cn2c3ccccc3c3nc4ccccc4nc32)cc1 reads Sa helicase inh = -8; MgrA DNA FP = 0.6

(further entries)
SMILES,Sa helicase inh,MgrA DNA FP
COC(=O)c1sc(NC(=O)COC(=O)/C=C/c2ccc(C)o2)c(C(=O)OC)c1C,11,.
c1ccc(C(Sc2ncn[nH]2)c2ccccc2)cc1,-1,-2.5
O=C(O)c1ccc(-n2nnnc2SCC(=O)N2CCOCC2)cc1,6,-1.1
Cc1n[nH]c(=O)c2c(NC(=O)COC(=O)CC3(Cc4nc5ccccc5s4)CCCC3)oc(C)c12,-6,.
CCOC(=O)C1CCN(C(=O)c2cnn(-c3ccccc3)c2-n2cccc2)CC1,9,2.5
CC1SC(/N=C/c2ccc(O)cc2)=NNC1=O (configuration not stated),7,-2.3
CCOC(=O)CN1C(=O)/C(=C/c2ccccc2)SC1=S,-13,.
COC(=O)C1C(=O)C2=C(CC1C)NC(C)=C(C(=O)OC(C)C)C2c1coc2ccccc2c1=O (configuration not stated),9,.
CCOc1ccc(NC(=O)CCC(C(=O)O)C(C)C)cc1 (configuration not stated),14,4.3
O=C(NC1CCCC1)C1CCN(S(=O)(=O)N2CCCCC2)CC1,1,-0.8
N#C/C(N)=C(/C#N)N=Cc1cccs1,.,0.5
CN(C)c1ccc(-c2nnc(-c3cccnc3)o2)cc1,6,4.8
Cc1ncc(COn2c(-c3ccccc3)nc3ccccc3c2=O)c(CO)c1O,.,1.8
CCC(=O)Nc1cc(C(F)(F)F)ccc1N1CCOCC1,4,-3.0
CCOC(=O)c1c(-c2ccccc2)csc1/N=C/c1sc2ccccc2c1O,.,-0.1
CCC(C(=O)NC1CCCCC1)n1c(C(=O)OC)cc2sc(Cl)cc21 (configuration not stated),4,-1.6
CC(=O)N1CC(=O)N=C1SCC(=O)Nc1nc(-c2ccccc2)cs1,-19,.
CCCCn1c(=O)n(Cc2cc(=O)n3ccsc3n2)c(=O)c2c1ncn2Cc1ccco1,5,.
O=C(NCCCN1CCCC1=O)c1ccc(Cl)c(NS(=O)(=O)c2ccc(F)cc2)c1,-12,.
C=CCn1c(Cc2c[nH]c3ccccc23)nnc1SCC(=O)Nc1ccc(OC)cc1,-8,-2.6

Following part:
SMILES	Sa helicase inh	MgrA DNA FP
Cc1ccc(C)c(-n2nnnc2SCC(=O)OCC(=O)c2cc(C)n(-c3ccc4c(c3)OCO4)c2C)c1	-12	.
CCOC(=O)c1c(C)n(-c2ccc(OC)cc2)c2ccc(Oc3ncccc3C#N)cc12	2	1.3
Cn1nc(NC(=O)COCC(=O)O)c2ccccc21	-6	.
O=C(Nc1nnc(-c2ccccc2)o1)C1CCN(C(=O)/C=C/c2ccccc2)CC1	-1	.
CCCCOC(=O)C1=C(C)NC2=C(C(=O)CC(C)(C)C2)C1c1cc(Br)c(O)c(OC)c1 (configuration not stated)	.	-0.3
CNc1nc(-c2cccc(N)c2)cs1	.	6.2
COC(=O)c1ccc(COc2cccc(OC)c2)o1	8	.
Cc1nn(-c2ccccc2)nc1C(=O)ON1C(=O)C2C3C=CC(O3)C2C1=O (configuration not stated)	.	8.6
N#Cc1cccc(CS(=O)(=O)c2ccc(Cl)cc2)c1	-17	.
COc1cc(CCC(=O)NC(C)C(c2ccccc2)N2CCOCC2)cc(OC)c1OC (configuration not stated)	-6	.
C/C(=N\NC(=O)Cc1ccc(Cl)cc1)c1ccccc1O	7	1.1
C1=C(CCNc2ncnc3nc[nH]c23)CCCC1	11	.
CC1=C/C(=C\c2c(O)n(-c3cccc(C)c3)c(=O)[nH]c2=O)C(C)=N1	12	23
CCNc1nc(NCC)n2c(SCC(=O)c3c[nH]c4ccccc34)nnc2n1	-3	.
O=C(Cn1cc(C(F)(F)F)ccc1=O)NCC(F)(F)F	-6	.
CNC(=S)N1CCN(C(=O)/C(=C/c2ccc(F)cc2)NC(C)=O)CC1	16	3.4
Cc1noc(-c2ccccc2)c1NC(=O)NCC1COc2ccccc2O1 (configuration not stated)	-11	.
COc1cc(C#N)ccc1OCC(N)=O	5	-1.3
O=C1c2ccncc2C(=O)N1C1CCCCC1	11	0.5
CCC12CC3CC(O)(CC(O)(C3)C1)C2	-10	4.1
Cn1cnc2c1c(=O)n(Cc1ccccc1)c(=O)n2C	7	.
CCOC(=O)N1CCN(C(=O)c2ccc(Br)cc2)CC1	-13	.
C=CCn1c(C)nnc1SCC(=O)c1ccc2ccccc2c1	-5	.
Cc1ccc(CSc2nc(C(=O)C(F)(F)F)c3ccccn23)cc1	.	-0.4
CCOC(=O)c1cc2c(ccn2C)n1Cc1c(Cl)cccc1Cl	6	-2.8
Cc1cccc(N2N=C(C(=O)N3CCc4ccccc4C3)CCC2=O)c1	14	.
CN1CCN(Cc2c(O)ccc3c(=O)c(-c4ccc(Cl)cc4Cl)c(C(F)(F)F)oc23)CC1	5	1.5
O=C(CCCn1c(=O)c2cccn2c2ccccc21)NCc1cccnc1	7	-0.1
COC(=O)CC(=O)CN1C(=O)c2ccccc2C1=O	9	1.6
CC(C)=CC[C@@H](O)C1=CC(=O)c2c(O)ccc(O)c2C1=O	.	3.2
CCC(C)C1C(C#N)=C(N)OC2=C1C(=O)CC(C)(C)C2 (configuration not stated)	-17	.
CCCN(CCC)S(=O)(=O)c1ccc(C(=O)NNC(=O)CCc2cc(OC)c(OC)c(OC)c2)cc1	.	2.1
Cc1ccc(C)c(NC(=O)CSc2nnc(NC(=O)c3ccccc3F)s2)c1	-15	.
CCOc1nc(Nc2ccc(I)cc2C)nc(NC2CCCCC2)n1	2	-0.6
COc1ccc(CCN(Cc2cc3cc(C)ccc3n3nnnc23)C(=O)N(C)C)cc1OC	3	0.2
COc1ccccc1Nc1nc(C2(C)CCC(=O)O2)cs1 (configuration not stated)	11	-0.7
Cc1cc(Br)c(S(=O)(=O)C(C)(C)C)c(Br)c1	-17	0.4
CN1C(=O)C(Cc2ccccc2)(Cc2ccccc2)c2ccccc21	.	0.2
Cc1noc(C)c1C(=O)COC(=O)c1ccc(S(=O)(=O)N2CC(C)OC(C)C2)cc1 (configuration not stated)	1	.
CN1CCN(NC(=O)CCN2C(=O)/C(=C\c3ccco3)SC2=S)CC1	1	.
O=C(Nc1cccnc1Oc1ccc(Cl)cc1)c1ccccc1Cl	.	-1.8
O=C(CSc1nc2ccccc2n1-c1ccccc1)N1CCCC1	-22	1.8
O=C(O)COc1ccc(/C=C2\SC(=O)N(Cc3ccc(F)cc3)C2=O)cc1	8	-2.6
CCN(CC(=O)Nc1ccc2c(c1)OCCO2)C(=O)/C=C/c1ccco1	-8	.
Cc1cccc(-n2ncc(C(=O)N3CCCC3)c2-n2cccc2)c1	20	.
COc1ccc(C(=O)Nc2c(O)c3ccccc3oc2=O)cc1OC	-3	.
S=C(NCc1ccco1)NC1CCCc2ccccc21 (configuration not stated)	9	.
Cc1cc(N2CC(C)CC(C)C2)nc2cc(Cl)ccc12 (configuration not stated)	1	-0.2
CCOC(=O)c1nc[nH]c1C	-22	2.1
CCCCn1c(CSc2ccccn2)cn(-c2nnc(C(C)(C)C)s2)c1=O	.	0.2
CC(C)N1C(=O)/C(=C2/C(=O)N(CC(=O)O)c3ccc(Br)cc32)SC1=S	23	.
Fc1ccc(-c2ccc(C=Nc3ccc(F)c(F)c3)[nH]2)cc1	-18	-1.5
Cn1c(C2Sc3ccccc3NC2=O)ccc1C1Sc2ccccc2NC1=O (configuration not stated)	12	.
Clc1ccc(CCNc2ncnc3c2nc2n3CCCC2)cc1	-13	.
O=C(CSc1nnc(SCC(=O)NCC2CCCO2)s1)NCC1CCCO1 (configuration not stated)	-3	.
CCc1cccc(N2C(=O)C(Cc3ccccc3)N=C2N2CCCCC2)c1 (configuration not stated)	-16	.

(list continues)
SMILES	Sa helicase inh	MgrA DNA FP
Cc1cc(C)cc(C(=O)N2CCCCCC2)c1	0	0.3
CC(C)(C)c1ccc(C(=O)On2c(-c3ccccc3F)nc3ccccc3c2=O)cc1	.	-2.5
COc1ccc(C(=O)c2oc3ccccc3c2NC(C)=O)cc1	-11	.
CCOc1cc(C2N3CCc4ccccc4C3CN2S(=O)(=O)c2ccc(C)cc2)ccc1OC (configuration not stated)	1	-3.0
Cc1nc(-c2cc(C#N)c(Oc3ccc(C(F)(F)F)cc3)nc2C)cs1	.	-0.7
Cn1c2ccccc2c2nnc(SCC(N)=O)nc21	13	1.1
CCN(CC)Cc1oc(-c2ccccc2)cc1C(=O)O	4	5.5
CCc1ccc(C2C(C#N)=C(N)Oc3cc(N)ccc32)cc1 (configuration not stated)	2	18
COc1cccc(C(=O)NC(Cc2ccccc2)C(=O)O)c1 (configuration not stated)	.	-4.2
CN(C)c1n[nH]c(=O)[nH]c1=O	11	0.2
O=C(C(NS(=O)(=O)c1ccccc1)c1ccccc1)N1CCCC1 (configuration not stated)	-25	1.2
O=C1NC(c2ccccc2)=N/C1=C/c1cccs1	.	0.9
CN(C)/C=N/c1ncccn1	.	1.3
